Screening results deposited in PubChem by National Center for Advancing Translational Sciences (NCATS).
hNpr1 antagonist: Natriuretic polypeptide receptor (hNpr1) antagonism - Primary qHTS; Atrial natriuretic peptide receptor 1 (Homo sapiens), P16066; HEK293 hNpr1 GloSensor cGMP, ANP-stimulated luminescence; Potency, µM (titrated, usually from 46.3 µM), for inactives: top-dose activity change, negative = inhibition, hits mostly inhibitors; 76,000 compounds, 1.6% hits; AID 1347048, 2019; active = well fitted inhibition curve with a large enough effect; inconclusive = small, poorly fitted or top-dose-only effect; inactive = no such curve, though single readings can be large or run the other way;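 also: nearly all actives have a fitted effect of over 60% in size; nearly all hits also lower the signal before the agonist is added; a reference antagonist and vehicle were the controls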
Target sequence (P16066 whole entry, looked up): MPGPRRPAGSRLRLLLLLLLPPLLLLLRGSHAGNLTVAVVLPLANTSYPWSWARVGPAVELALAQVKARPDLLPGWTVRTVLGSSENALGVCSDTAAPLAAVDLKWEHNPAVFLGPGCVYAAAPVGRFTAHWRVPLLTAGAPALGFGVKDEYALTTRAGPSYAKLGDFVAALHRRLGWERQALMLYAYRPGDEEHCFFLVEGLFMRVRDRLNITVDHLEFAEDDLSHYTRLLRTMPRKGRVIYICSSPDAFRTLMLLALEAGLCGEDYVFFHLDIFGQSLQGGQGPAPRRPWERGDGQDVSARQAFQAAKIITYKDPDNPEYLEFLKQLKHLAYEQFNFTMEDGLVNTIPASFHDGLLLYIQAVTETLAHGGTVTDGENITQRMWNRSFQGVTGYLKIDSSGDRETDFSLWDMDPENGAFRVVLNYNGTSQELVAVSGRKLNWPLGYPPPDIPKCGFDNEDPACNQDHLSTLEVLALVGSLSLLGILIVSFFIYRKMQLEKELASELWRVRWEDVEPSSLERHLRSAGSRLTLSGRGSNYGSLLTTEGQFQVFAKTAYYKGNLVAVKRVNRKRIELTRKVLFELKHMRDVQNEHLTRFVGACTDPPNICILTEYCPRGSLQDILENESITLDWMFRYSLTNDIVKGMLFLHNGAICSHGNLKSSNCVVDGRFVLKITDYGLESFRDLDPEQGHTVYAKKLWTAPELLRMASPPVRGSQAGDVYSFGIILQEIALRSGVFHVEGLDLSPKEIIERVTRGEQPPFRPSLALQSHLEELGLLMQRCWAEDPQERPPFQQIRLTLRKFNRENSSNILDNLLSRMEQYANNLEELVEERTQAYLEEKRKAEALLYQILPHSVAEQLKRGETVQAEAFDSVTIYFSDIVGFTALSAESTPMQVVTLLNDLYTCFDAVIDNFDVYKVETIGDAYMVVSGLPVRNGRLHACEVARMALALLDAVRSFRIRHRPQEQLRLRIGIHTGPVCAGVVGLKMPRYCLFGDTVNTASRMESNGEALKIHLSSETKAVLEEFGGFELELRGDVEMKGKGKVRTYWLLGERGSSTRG
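Compound pre-incubated 30 min at room temperature on GloSensor-loaded HEK293 cells stably carrying hNpr1 and the pGS-40F cGMP biosensor. Stimulation uses hNppA at 0.1 nM final; luminescence is taken at baseline and 20 min post-agonist.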
Starred values were filed as active, the others as inactive; u = inconclusive; [ ] = dose if it differs, or a comment. % is scaled to controls: 0 for no effect and ±100 for the full control effect; potency is read from the fitted curve at half-maximal effect.

compound	hNpr1 antagonist
O=C(Cn1ccn2nc(-c3ccc(F)cc3)c(CO)c2c1=O)NCc1ccc(F)cc1Cl	6%
COC(=O)[C@H](NC(=O)[C@@H]1[C@@H](NC(=O)Nc2cccc(OC)c2)CCN1C(=O)c1cnccn1)C(C)C	1%
CCn1nc(C)c(CN2C[C@@H](CO)[C@H](NC(=O)c3ccccc3)C2)c1C	4%
O=C1COCC2(CN1Cc1ccccc1)CN(C(=O)c1ccc(F)c(Cl)c1)C2	2%[70.6 µM]
CN(Cc1ccccc1)C(=O)c1cn2ccnc(-c3ccccc3)c2n1	-5%
OC(c1ccccc1)c1cn(C2CCN(Cc3cnc4ccccc4c3)CC2)nn1 (stereo unspecified)	0%
CN1C(=O)CO[C@H]2CN(C(=O)c3ccccn3)C[C@H]21	2%[70.6 µM]
O=C1CCC2(CCNCC2)CN1CCCNc1cccnc1	0%
CN1CC[C@H]2COC(=O)N2c2ccccc2C1	-1%[70.6 µM]
Cc1cc(C(=O)N2CCCN(S(C)(=O)=O)C(c3ccccc3)CC(=O)NCC2)n(C)n1 (stereo unspecified)	-3%
O=C(c1cccnc1)N1CCCC(c2nc(C3CCOCC3)no2)C1 (stereo unspecified)	16%
COc1ccc(S(=O)(=O)N2CCc3c(C(=O)NCc4ccccn4)cccc32)cc1	u
Cc1cc(CC(C)NC(=O)c2cn(C3CCC(N)CC3)nn2)n[nH]1 (stereo unspecified)	1%
O=C1CCN(C2CCN(Cc3nc(COc4ccccc4)no3)CC2)CCN1	-1%
CCCS(=O)(=O)N1CCc2c(sc3ncnc(N(C)C)c23)C1	2%
Cc1cnc(C2CC2)n1C1CCCN(S(=O)(=O)c2cccc(F)c2)C1 (stereo unspecified)	4%
C=CCC1(C(=O)O)CCCN(Cc2cn[nH]c2C(=O)O)C1 (stereo unspecified)	6%
COc1ccc(CN2CCC23Cc2ccccc2NC3=O)cc1 (stereo unspecified)	0%[70.6 µM]
CCn1ncc(CN2CCn3c(nnc3[C@@H]3C[C@@H](O)CN3Cc3cccnc3)C2)c1C	5%
Cc1ccc(C2Cn3nnc(-c4noc(-c5cccs5)n4)c3CO2)cc1 (stereo unspecified)	11%
CN1c2cc(C(=O)Nc3cc(F)cc(F)c3)ccc2C(=O)N2CCCCCC21 (stereo unspecified)	u
CCN1C(=O)C2CC3(CCN(C(=O)c4cc(C)n(C)n4)CC3)CN2C1=O (stereo unspecified)	-11%
CN1c2cc(C(=O)N3CCC(C(N)=O)(N4CCCCC4)CC3)ccc2C(=O)N2CCCC21 (stereo unspecified)	0%
CC(C)CC(=O)N1CCc2nnc([C@@H]3C[C@@H](O)CN3C(C)C)n2CC1	3%
O=C(NCc1cccnc1)[C@@H]1C[C@@H](O)CN1C1CCN(C(=O)c2ccsc2)CC1	-14%
Cn1nc(C2CCN([S+](=O)([O-])c3cccc(C(F)(F)F)c3)CC2)[nH]c1=O	0%
COc1ccc(CCc2nc3nccc(-c4ccc(F)cc4)n3n2)cc1OC	-4%
CC(C)c1ccc(CN2CCC3(CC2)COCCN3C(=O)OCc2ccccc2)cc1	u
COc1ccc(NC(=O)C2CC(=O)N(c3n[nH]c4cccc(F)c34)C2)cc1Cl (stereo unspecified)	-1%
O=C1c2c(nc(CNCc3ccc4c(c3)OCO4)n2Cc2ccccc2)NCCN1CCOc1ccccc1	-14%
COc1ccc(CN2Cc3cc(NC(=O)c4cccc(F)c4)ccc3OCC2=O)c(OC)c1	0%
Cn1cc(-c2ccncc2)cc1C(=O)NC1CCN(Cc2ccccc2)CC1	-1%
COc1ccccc1Oc1c(CCC(=O)NCC(C)C)c(C)nn1-c1ccc(F)cc1	-3%
COc1ccccc1CN1C[C@@H]2C(=O)N(Cc3ccc4c(c3)OCO4)C(=O)[C@@H]2C1	-1%
C=CCCC(CN1CCCOCC1)Oc1ccc(-c2ccccc2)nn1 (stereo unspecified)	-8%
O=C(c1ccncc1)N1CCC2(CC1)NC(=O)N(Cc1ccccc1Cl)C2=O	7%
O=C(c1ccc(F)cc1F)N1CCC(Cc2nc(-c3cnccn3)no2)CC1	-2%
CCN(CC)C(=O)[C@@H]1CCC[C@@H](NC(=O)c2ccc3c(c2)OCO3)CN(C)C(=O)C1	-1%[70.6 µM]
O=C(NCCc1ccc(Cl)cc1)C1CCCN(c2nc3ncccc3o2)C1 (stereo unspecified)	2%
Cc1ccc2oc(N3CCCC4(CCC(=O)N(Cc5cccnc5)C4)C3)nc2c1 (stereo unspecified)	5%
CCN(Cc1ccncc1)C(=O)CC(c1ccccc1)c1ccc2c(c1)OCO2 (stereo unspecified)	u
Cc1ccccc1C(=O)N1C(C(=O)NCC2CCCO2)COC12CCN(C(=O)c1cccs1)CC2 (stereo unspecified)	-1%
COc1ccccc1N1CCCc2ncc(C(=O)NCCc3ccccc3)cc21	-10%[70.6 µM]
CN(C)c1ccc(CC(=O)N2CC[C@@](C)(O)[C@@H](O)C2)cc1	0%
CSc1cccc(NC(=O)COc2cccc(-c3nnc4n3CCCC4)c2)c1	-1%
Cc1ccccc1NC(=O)Cn1c(N2CCCCC2)nc(C)c(C)c1=O	3%
FC(F)(F)c1ccc2nc([C@H]3CCN(C4CCOCC4)C3)[nH]c2c1	-2%[70.6 µM]
CC(C)(C)C(=O)N1CCC(N2CCCC(C(=O)NCc3ccccc3)C2)CC1 (stereo unspecified)	3%
COC(=O)C1=CN(CC(=O)Nc2cccc(C)c2)S(=O)(=O)N=C1C	-2%
Cc1ccc2c(c1)nc1n2[C@@H](CNCc2ccncc2F)COC1	4%[70.6 µM]
O=C(c1cc(F)ccc1Cl)N1C[C@@H](CO)[C@H](c2ccncc2)C1	8%
Cc1cccc(CC(=O)N2CCC(c3n[nH]c(=O)n3Cc3ccc(F)cc3)CC2)c1	-4%
CC(C)c1nnsc1CNC(=O)C1CCC(=O)N(CC2CCCCC2)C1 (stereo unspecified)	-2%
COc1cc(=O)n2c(c1C(=O)Nc1cccc(SC)c1)CCCC2	3%
CC1=C[C@@H](CNC(=O)c2cnccn2)[C@H](C(C)C)C[C@H]1Cc1nc2ccc(C)cc2[nH]1	u
C=CCOc1cccc(-c2nc(C(=O)NCC)cs2)c1	-13%
COCC1CN(C)CC12CCN(C(=O)c1cccc(Br)c1)CC2 (stereo unspecified)	-7%
CCCC(=O)N1CCc2cc(S(=O)(=O)NC(C)c3ccccc3)ccc2C1 (stereo unspecified)	7%
CCOCc1nc(C2CCCN2S(=O)(=O)c2c(C)noc2C)no1 (stereo unspecified)	-4%
Cc1cn2nc(C(=O)N3CCC(NC(=O)c4ccc(F)cc4Cl)CC3)cc2c(=O)[nH]1	21%

Among those listed so far, these have a CF3 group:
compound	hNpr1 antagonist
Cn1nc(C2CCN([S+](=O)([O-])c3cccc(C(F)(F)F)c3)CC2)[nH]c1=O	0%
FC(F)(F)c1ccc2nc([C@H]3CCN(C4CCOCC4)C3)[nH]c2c1	-2%[70.6 µM]

(list continues)
compound	hNpr1 antagonist
FC1(F)CN[C@H](c2nnc(C3CC3)o2)C1	1%
O=C(NCc1cccnc1)C1CCN(C(=O)N2CC3CC(C2)[C@H]2CCCC(=O)N2C3)CC1 (stereo partly specified)	0%
O=C(CC1CCCN(c2cnn(CC3CC3)c(=O)c2)C1)NCc1cccc(F)c1 (stereo unspecified)	-3%
O=[S+]([O-])(Nc1nncs1)c1ccc2c(c1)OCCN(Cc1ccncc1)C2	-3%[70.6 µM]
CCOc1cc(=O)n2c(c1C(=O)Nc1ccc(C)cc1)CCCC2	1%
COCCN1C(=O)[C@@H]2C[C@@H](CN2C(=O)c2ccccc2)Oc2ccccc21	1%[70.6 µM]
O=C(O)c1ccnc(-c2ccnc(-c3ncccn3)n2)c1	11%
COc1ccc(-n2nc(C3CCN([S+](=O)([O-])c4ccc(C)cc4)CC3)[nH]c2=O)cc1	14%
COc1ccc(Cl)cc1C(=O)N1CCC2(CC1)N=C(c1ccc(C)cc1)NO2	-9%
O=C(Cc1ccccc1)NC1CCN(c2cc(-c3ccccc3)[nH]n2)CC1	-19%
O=C(Nc1ccc2c(N3CCCC3)ncnc2c1)c1ccccc1Cl	0%
O=C1CCN(Cc2cccc(F)c2)CCCC(c2nc(-c3cccnc3)no2)CCN1 (stereo unspecified)	2%
COc1ccc(-c2cc(-c3cccc(OC)c3OC)cn3cncc23)cc1	0%[70.6 µM]
Cc1ccccc1N1Cc2c(NCc3ccc(F)cc3)ncnc2N(C)CC1=O	6%
Cc1ccc(Cl)cc1NC(=O)CN1C(=O)NC(c2ccc(Cl)cc2)C2=C1COC2=O (stereo unspecified)	-22%
O=C(N1CCC(NS(=O)(=O)c2cccc(F)c2)CC1)N1CC2CC(C1)[C@H]1CCCC(=O)N1C2 (stereo partly specified)	3%
CN1CCN(Cc2ccc(-c3ccc(C(C)(C)C#N)cc3)nc2)CC1	0%
COc1cc(NC(=O)C23CCCC=C2N(c2ccccc2)C(=O)CC3)cc(OC)c1 (stereo unspecified)	-11%
CC(C)CCNC(=O)c1cnc2c(c1)N(C(=O)Cc1cccc(C(F)(F)F)c1)CCC2	-1%[70.6 µM]
COc1cccc(CC(=O)N[C@@H](Cc2ccccc2)C(=O)N2CCCOCCNC(=O)CC2)c1	2%
Cc1ncccc1C(=O)N1CCn2c(nnc2[C@@H]2C[C@@H](O)CN2Cc2ccccc2)C1	3%
c1cnc2nc(-c3ccncc3)[nH]c2c1	-2%[70.6 µM]
O=C(Cn1ccn2nc(-c3ccc(F)cc3)c(CO)c2c1=O)Nc1cc(F)ccc1F	6%
CCc1ccc(S(=O)(=O)N2CCC(Oc3ncccc3C(=O)N3CCOCC3)C2)cc1 (stereo unspecified)	-1%
Cc1noc(C)c1[S+](=O)([O-])N1CCC2(C1)C(=O)N(Cc1ccccc1)c1ccccc12 (stereo unspecified)	-18%
O=C1CCN(S(=O)(=O)c2ccccc2)CCCC(C(=O)NCCc2cccnc2)CCN1 (stereo unspecified)	-2%
CCCS(=O)(=O)N1CCC2(CC1)NCCc1c2[nH]c2ccccc12	-7%
O=C(NCCCN1CCCC1=O)c1csc(N2CCN(c3ccc(F)cc3)CC2)n1	-17%
CCC1Oc2ccc(NC(=O)COc3ccccc3)cc2CN(C(CC)c2ccccc2)C1=O (stereo unspecified)	-2%
COc1cccc(CC(=O)N2CCCCCCN(C)C(=O)[C@H]3CCC[C@H]32)c1	-9%
COc1cccc(CN2C[C@@H](CO)[C@H](c3ccccn3)C2)c1OC	-10%
COc1ccccc1-c1ncc(CN2CCCC3(CCNCC3)CC2)cn1	6%
CCOc1ccc(NC(=O)N2CCc3c(c4ccccc4n3C)C2)cc1	-16%
COc1cc(OC)cc(C(=O)N2CCN(c3cc(C(F)(F)F)nc(C)n3)CC2)c1	2%
NC(=O)c1ccc(OC2CCN(C(=O)CCc3ccccc3)C2)nc1 (stereo unspecified)	8%
Cc1nc(-c2cn(C3CCCN(C(=O)c4ccc(F)c(F)c4)C3)nn2)no1 (stereo unspecified)	-18%

An excerpt from above in order of molar mass, highest first.
compound	hNpr1 antagonist
CC(C)CCNC(=O)c1cnc2c(c1)N(C(=O)Cc1cccc(C(F)(F)F)c1)CCC2	-1%[70.6 µM]
COc1cc(OC)cc(C(=O)N2CCN(c3cc(C(F)(F)F)nc(C)n3)CC2)c1	2%
CCCC(=O)N1CCc2cc(S(=O)(=O)NC(C)c3ccccc3)ccc2C1 (stereo unspecified)	7%
Cc1ccc(C2Cn3nnc(-c4noc(-c5cccs5)n4)c3CO2)cc1 (stereo unspecified)	11%
COc1ccc(-c2cc(-c3cccc(OC)c3OC)cn3cncc23)cc1	0%[70.6 µM]
COC(=O)C1=CN(CC(=O)Nc2cccc(C)c2)S(=O)(=O)N=C1C	-2%
COc1ccc(CN2CCC23Cc2ccccc2NC3=O)cc1 (stereo unspecified)	0%[70.6 µM]

Remaining list, next part
compound	hNpr1 antagonist
CCCNC(=O)N1CCN(Cc2c(C)noc2C)CC1	-6%
COc1ccc(CC(=O)N2CCC(Cc3nc(-c4ccc(F)cc4)no3)CC2)cc1	5.6µM*
O=C(NCCCN1CCOCC1)c1ccc(-c2ccc(N3CCCCCC3)nc2)cc1	-12%
O=C(Cc1ccsc1)N[C@@H]1COCC[C@@H]1OCc1cscn1	-7%
CN1CCOC[C@H]1c1ncc(-c2cccc(F)c2)[nH]1	2%[70.6 µM]
COc1ccc(NC(=O)[C@@H]2C[C@@H](c3cccc(C(F)(F)F)c3)N(Cc3cnn(C)c3)C2)cc1	0%
COC(=O)[C@@H]1C[C@H](NS(=O)(=O)c2ccc3c(c2)NC(=O)CO3)CN1C	-13%
CN(C)c1ccc(CNC2(Cc3cc(COc4ccccc4)on3)COC2)cc1	-1%[70.6 µM]
COCC(=O)Nc1ccc(-c2c(-c3ccccc3OC)nn(-c3ccc(C)cc3)c2OC(C)=O)cc1	-2%
O=C(O)C[C@@H]1CCN(C(=O)c2ccccc2)C[C@@H]1CCN1C[C@@H]2C[C@H](C1)c1cccc(=O)n1C2	1%

Not all compounds are listed; count on the stated rates, not on these rows.
